UCH37 inh – inhibitors of human deubiquitinating enzyme UCH37. Q9Y5K5. purified proteasome/UCH37, Ub-AMC cleavage fluorescence. 330,000 tested, 0.33% active. inhibition, % (test concentration not listed);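 active means mean of two replicates above 20%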;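 further: 0% = compound-free wells with enzyme and 100% = wells lacking proteasome; stock transfer was 100 nL into about 20 µL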
Target sequence (Q9Y5K5 whole entry, looked up): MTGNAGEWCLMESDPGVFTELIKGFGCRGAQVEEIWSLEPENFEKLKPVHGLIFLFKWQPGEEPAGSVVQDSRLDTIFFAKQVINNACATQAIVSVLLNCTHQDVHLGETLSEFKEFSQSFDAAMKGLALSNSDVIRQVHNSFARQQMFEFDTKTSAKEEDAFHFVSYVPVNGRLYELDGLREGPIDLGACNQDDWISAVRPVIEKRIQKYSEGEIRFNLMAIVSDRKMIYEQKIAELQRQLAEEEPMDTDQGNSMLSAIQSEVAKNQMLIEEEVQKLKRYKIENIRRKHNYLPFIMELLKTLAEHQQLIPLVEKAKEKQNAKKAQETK
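Schedule: 30 min plus 25 min, room temperature / Material: human UCH37 within purified proteasomes / Technique: AMC fluorescence intensity at 355/460 nm / Buffer or medium: pH 7.4 Tris-HCl (50 mM) with ovalbumin, ATP-MgCl2, DTT / Controls: wells without proteasome as full block, compound-free enzyme plus substrate as uninhibited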
RanGTP-Impb inh – inhibitors of RanGTP-importin-beta interaction, primary screen, biochemical, FRET, CFP-Ran, YFP-importin-beta, homogeneous; cell-free CFP-Ran/YFP-importin-beta FRET ratio; 300,000 tested, 1.1% active; inhibition, % (concentration not given with the values);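 active means most replicates above 15%; inconclusive means exactly half above 15%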;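 further: 0% = DMSO wells and 100% = Ran loaded with GDP instead of GTP; wells of about 40 µL received 100 nL stock; the first replicate is given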
MLL AF4-AF9 inh – blocks AF4 peptide binding to human AF9. P42568. inhibition, % at 10 µM. AlphaScreen, biotin-AF4 peptide binding to FLAG-AF9. 350,000 tested, 0.47% active;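 active means every replicate reaching a set inhibition limit, whatever the replicate mean, cut at about 25% in these data; inconclusive means mean inhibition reaches that limit but some replicates miss it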;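 further: 0% = plate neutral control median and 100% = total signal loss; the record names both 10 and 1 µM as test concentration; the first replicate is given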
FGF22 binding – FGF22 (human) thermal shift binding; Q9HCT0; calls only at 9.99 µM; recombinant FGF22 thermal shift, SYPRO orange fluorescence; percent of sucrose octasulfate shift, DMSO zero; 340,000 tested, 1.5% active;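 active means melting point raised past a set limit in the mean and every replicate; inconclusive means no clear call; three in four hits are not shown here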
Target sequence (Q9HCT0 whole entry, looked up): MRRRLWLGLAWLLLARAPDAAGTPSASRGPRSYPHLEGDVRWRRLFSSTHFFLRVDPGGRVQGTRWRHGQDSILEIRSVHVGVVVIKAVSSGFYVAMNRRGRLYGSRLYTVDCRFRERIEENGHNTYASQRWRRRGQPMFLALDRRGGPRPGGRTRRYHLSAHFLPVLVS
Ecoli growth – E. coli growth inhibition; Escherichia coli growth, OD600, 23 h; stronger effect = lower value; OD600 absorbance (no concentration beside the values); 330,000 tested, 0.21% active; AID 1053175;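 active means OD600 absorbance below the run mean of sample wells minus 3.6 SD, in any replicate, cut at about 0.56 in these data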;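 further: stock transfer was 300 nL into about 60 µL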
Vif A3G – HIV-1 Vif–A3G interaction blockers – biochemical, TR-FRET, GST-Vif 1-94, biotin-A3G peptide, dose response retest, primary screen (AID 1117319); TR-FRET GST-Vif / biotin-A3G peptide binding; higher % means a stronger effect; test concentration not given here; strong numbers were not always called active; one-dose inhibition, %; IC50 in µM for titrated hits; 260,000 tested, 0.57% active;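 active means above the screen mean plus three standard deviations and confirmed in dose response; inconclusive means results disagree or hit not tested in dose response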;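 further: Vif residues 1-94 fused to GST binding biotinylated APOBEC3G peptide 110-148; 0% = full assay without inhibitor and 100% = GST in place of GST-Vif; retest series ran down from 100 µM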
HNF4A DNA FP – change in binding of human HNF4 alpha to DNA. P41235. activity change, % at 10 µM. 360,000 tested, 0.3% active. HNF4a-FITC DNA binding, fluorescence polarization, 1 h; in the data active means activity change above about 30%, passing the limit was not always enough;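 further: controls were the assay level and a saturating level of protein; the project sought stronger binding though the title names inhibitors; some compounds called inactive have numbers as strong as hits; positive values seem to mean higher polarization but the record does not say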
Target sequence (P41235 whole entry, looked up): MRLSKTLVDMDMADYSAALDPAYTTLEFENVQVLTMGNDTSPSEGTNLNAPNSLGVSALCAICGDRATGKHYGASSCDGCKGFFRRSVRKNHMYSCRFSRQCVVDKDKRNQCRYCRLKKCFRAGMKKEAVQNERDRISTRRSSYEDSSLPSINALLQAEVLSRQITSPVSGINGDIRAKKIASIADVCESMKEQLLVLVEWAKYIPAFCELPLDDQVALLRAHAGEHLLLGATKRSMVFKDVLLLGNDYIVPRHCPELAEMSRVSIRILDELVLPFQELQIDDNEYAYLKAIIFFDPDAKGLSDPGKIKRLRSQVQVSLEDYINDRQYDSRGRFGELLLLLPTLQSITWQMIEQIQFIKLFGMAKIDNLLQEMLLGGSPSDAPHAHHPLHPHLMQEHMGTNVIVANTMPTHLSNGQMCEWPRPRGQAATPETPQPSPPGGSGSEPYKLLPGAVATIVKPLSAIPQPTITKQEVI
The depositor's hits bear a star; & = joins results of further samples. Some of the compounds tested (hit frequency here may not be typical).

Screening CCOC(=O)COn1c(=O)c(-c2ccc(Br)cc2)[n+]([O-])c2ccccc21 returned UCH37 inh -3.2, RanGTP-Impb inh 4.2, MLL AF4-AF9 inh -4.4, FGF22 binding inactive, Ecoli growth 0.69, Vif A3G -2% and HNF4A DNA FP 4.4.
Screening CCOc1ccccc1/C=N/Nc1nc2ccccc2o1 returned RanGTP-Impb inh 0.6, MLL AF4-AF9 inh 0.3, FGF22 binding inactive and HNF4A DNA FP 1.0.
Cc1cc(C)n(CCNS(=O)(=O)c2ccccc2)n1 was read as UCH37 inh 2.5, RanGTP-Impb inh 1.1, MLL AF4-AF9 inh -13, FGF22 binding inactive, Ecoli growth 0.67 and HNF4A DNA FP 4.7.
`O=C(Nc1ccc(Br)cc1F)c1ccc2c(c1)OCCO2` gave UCH37 inh 3.4, RanGTP-Impb inh 0.8, MLL AF4-AF9 inh 4.7, FGF22 binding inactive, Ecoli growth 0.66 and HNF4A DNA FP -0.9.
For O=S(=O)(c1ccccc1)N1CC2CC(Br)C(Br)CC21 (stereo not given) the results were MLL AF4-AF9 inh -1.5, FGF22 binding inactive, Vif A3G 7% and HNF4A DNA FP -2.8.
Cc1ccc(C(=O)OCC(=O)c2ccc(CC(=O)N3CCOCC3)s2)c(C)c1 was read as UCH37 inh 1.4, MLL AF4-AF9 inh 0.3, FGF22 binding inactive, Ecoli growth 0.64, Vif A3G 15% and HNF4A DNA FP -12.
`Cc1nn(C)cc1NC(=O)Cn1nc(C(F)(F)F)cc1C1CC1` gave UCH37 inh 1.8, RanGTP-Impb inh 12, MLL AF4-AF9 inh 1.5, FGF22 binding inactive, Ecoli growth 0.69, Vif A3G 6% and HNF4A DNA FP 1.8.
CCCCc1cc(=O)oc2cc(OCC(=O)Nc3cccnc3)c(Cl)cc12 was read as UCH37 inh -4.2, RanGTP-Impb inh -1.5, MLL AF4-AF9 inh -3.5, FGF22 binding inactive, Ecoli growth 0.73, Vif A3G -1% and HNF4A DNA FP -4.1.
Screening COc1cc(NC(=O)CSc2nnc(C)s2)cc(OC)c1OC returned UCH37 inh 1.5, RanGTP-Impb inh 4.5, Ecoli growth 0.67, Vif A3G -1% and HNF4A DNA FP -1.5.
`COc1ccccc1NC(=O)Nc1nn(C)c2cccc(N(C)C)c12` gave UCH37 inh -4.5, RanGTP-Impb inh -1.9, MLL AF4-AF9 inh 2.2, FGF22 binding inactive, Ecoli growth 0.65, Vif A3G 10% and HNF4A DNA FP 1.2.
`CC(C)[C@H](NC(=O)c1ccc(Cl)cc1)C(=O)Nc1cccc(S(=O)(=O)N2CCOCC2)c1` gave MLL AF4-AF9 inh 2.1, FGF22 binding inactive and HNF4A DNA FP 3.3.
`COc1ccc([C@H]2CC(=O)C=C(c3cc(Br)ccc3OC)C2)cc1` gave UCH37 inh 3.2, MLL AF4-AF9 inh 3.2, FGF22 binding inactive and HNF4A DNA FP -3.1.
O=C(CNS(=O)(=O)c1ccc(F)c(Cl)c1)N1CCCC1 was read as UCH37 inh 1.4, RanGTP-Impb inh 6.8, MLL AF4-AF9 inh -3.5, FGF22 binding inactive, Ecoli growth 0.65 and HNF4A DNA FP 1.3.
COc1ccc(OC)c(NC(=O)c2cccc(NC(=O)c3ccccc3)c2)c1 was read as UCH37 inh 5.1, RanGTP-Impb inh 6.8, MLL AF4-AF9 inh -5.1, FGF22 binding inactive, Ecoli growth 0.68 and HNF4A DNA FP -0.5.
For CC(=O)N1CCN(C(=O)c2c(-c3ccccc3)noc2C)CC1 the results were UCH37 inh -0.3, MLL AF4-AF9 inh -1.1, FGF22 binding inactive, Ecoli growth 0.69, Vif A3G 14% and HNF4A DNA FP -0.2.
`Cc1ccc(CSCCNC(=O)c2ccc(N(C)S(=O)(=O)c3ccccc3)cc2)cc1` gave UCH37 inh 1.2, RanGTP-Impb inh inconclusive, Ecoli growth 0.72, Vif A3G -4%&5% and HNF4A DNA FP 1.9.
Screening COc1ccccc1C(=O)COC(=O)CNS(=O)(=O)c1ccc(NC(C)=O)cc1 returned UCH37 inh 0.9, RanGTP-Impb inh 1.5, MLL AF4-AF9 inh 0.7, FGF22 binding inactive, Ecoli growth 0.65, Vif A3G 2% and HNF4A DNA FP 1.4.
Cc1ccc(C)c(S(=O)(=O)N2CCN(C(=O)CN3C(=O)NC(C)(C)C3=O)CC2)c1 was read as UCH37 inh 0.8, MLL AF4-AF9 inh 0.7, FGF22 binding inactive, Ecoli growth 0.69, Vif A3G 0% and HNF4A DNA FP 1.5.
For COc1ccccc1NC(=O)Cn1nnc(-c2ccccc2NC(=O)c2cc3ccccc3oc2=O)n1 the results were UCH37 inh -0.6, RanGTP-Impb inh -0.8, MLL AF4-AF9 inh 5.7, FGF22 binding inactive, Ecoli growth 0.71, Vif A3G -2% and HNF4A DNA FP 2.4.
For CC(=O)c1ccc(OCCCC(=O)Nc2cccc(-c3nn[nH]n3)c2)cc1 the results were UCH37 inh 3.2, RanGTP-Impb inh 7.3, MLL AF4-AF9 inh 1.0, FGF22 binding inactive, Ecoli growth 0.62, Vif A3G -11% and HNF4A DNA FP 5.1.
Cc1cc(-c2ccc(C)c(S(=O)(=O)NCCc3ccc(S(N)(=O)=O)cc3)c2)on1 was read as UCH37 inh 5.6, RanGTP-Impb inh -1.3, MLL AF4-AF9 inh 2.1, FGF22 binding inactive, Ecoli growth 0.71 and HNF4A DNA FP 1.5.
Screening Cc1c(C)n2c(SCC(=O)NCc3ccc4c(c3)OCO4)nnc2[nH]c1=O returned UCH37 inh 2.3, RanGTP-Impb inh -1.6, MLL AF4-AF9 inh 0.3, FGF22 binding inactive, Ecoli growth 0.63, Vif A3G 5% and HNF4A DNA FP 0.4.
CCN1CCC2(CC1)N=C(c1ccc(F)cc1)C(=S)N2C(=O)c1ccc(C)cc1 was read as UCH37 inh 9.3, RanGTP-Impb inh -0.5, MLL AF4-AF9 inh -3.7, FGF22 binding inactive, Ecoli growth 0.68 and HNF4A DNA FP 5.0.
`c1ccc(CCNc2nc(-c3ccccn3)cs2)cc1` gave UCH37 inh 3.7, RanGTP-Impb inh -2.0, Ecoli growth 0.69, Vif A3G 8% and HNF4A DNA FP 3.3.
For O=C1c2ccccc2OCOc2ccccc21 the results were UCH37 inh 1.7, RanGTP-Impb inh 1.0, Ecoli growth 0.64, Vif A3G 4% and HNF4A DNA FP -5.3.
`CN1C2CCC1CC(NC(=O)c1cc(S(=O)(=O)N(C)C)c(Cl)cc1Cl)C2` (stereo not given) gave UCH37 inh 0.2, MLL AF4-AF9 inh 0.7, FGF22 binding inactive, Ecoli growth 0.7 and HNF4A DNA FP 5.6.
CC(C)N(C(=O)c1ccc(C(=O)Nc2ccc([N+](=O)[O-])cc2)cc1)C(C)C was read as UCH37 inh 7.1, RanGTP-Impb inh 7.3, Ecoli growth 0.72 and HNF4A DNA FP -0.7.
`c1ccc2c(c1)nnn2-c1ccncc1` gave MLL AF4-AF9 inh 5.3, FGF22 binding inactive and HNF4A DNA FP 2.9.
CCC(C)c1ccc2oc(-c3ccc(NC(=O)c4ncn[nH]4)cc3)nc2c1 (stereo not given) was read as UCH37 inh -173, RanGTP-Impb inh -4.3, Ecoli growth 0.66, Vif A3G -1% and HNF4A DNA FP -1.8.
For Cc1nc2cc(NC(=O)C3(C)CCCN(C(C)C)C3)ccc2o1 (stereo not given) the results were MLL AF4-AF9 inh 1.7, FGF22 binding inactive and HNF4A DNA FP -2.9.
Screening CCN(CC)c1ccc(S(=O)(=O)N2CCOCC2)cc1NC(=O)COC(=O)c1cccnc1SC returned UCH37 inh 2.9, RanGTP-Impb inh -0.3, MLL AF4-AF9 inh 9.2, FGF22 binding inactive, Ecoli growth 0.64, Vif A3G 4% and HNF4A DNA FP -5.3.
CCOC(=O)c1sc(N/N=C/c2ccccc2)nc1C was read as RanGTP-Impb inh 8.5, Vif A3G -3% and HNF4A DNA FP 0.2.
`Cc1ccc(OCCn2ccnc2)c(C)c1` gave UCH37 inh 1.7, RanGTP-Impb inh -1.2, MLL AF4-AF9 inh 0.2, FGF22 binding inactive, Ecoli growth 0.63 and HNF4A DNA FP -1.6.
Screening CCCn1c(SCC(=O)NNC(=O)c2ccccc2)nnc1-c1cccnc1 returned UCH37 inh 1.8, RanGTP-Impb inh 4.0, MLL AF4-AF9 inh 3.5, FGF22 binding inactive, Ecoli growth 0.68 and HNF4A DNA FP -1.6.
For NC(=O)C1CCN(C(=O)CSc2ccccn2)CC1 the results were UCH37 inh -2.8, RanGTP-Impb inh 0.4, Ecoli growth 0.7, Vif A3G 30% and HNF4A DNA FP 2.3.
CCS(=O)(=O)C(=C(Nc1ccc(OC)cc1)Nc1ccc(OC)cc1)S(=O)(=O)CC was read as UCH37 inh 5.2, RanGTP-Impb inh -2.1, Ecoli growth 0.7, Vif A3G 0% and HNF4A DNA FP 5.5.
`O=C(CCNS(=O)(=O)c1ccccc1C(F)(F)F)NCCCSc1ccccc1` gave UCH37 inh 4.0, RanGTP-Impb inh -2.2, MLL AF4-AF9 inh -8.6, FGF22 binding inactive, Ecoli growth 0.71, Vif A3G -3% and HNF4A DNA FP -0.7.
For CC(c1cc2ccccc2s1)N(O)C(N)=O (stereo not given) the results were UCH37 inh -1.6, RanGTP-Impb inh 4.1, Ecoli growth 0.7 and Vif A3G -5%.
For COc1ccc(NS(=O)(=O)c2cccc3cccnc23)cc1Cl the results were UCH37 inh 3.0, RanGTP-Impb inh 0.0, MLL AF4-AF9 inh 6.0, FGF22 binding inactive, Ecoli growth 0.63, Vif A3G -8% and HNF4A DNA FP 2.6.
Screening CC(=O)c1cccc(OCC(=O)Nc2cccc(C(=O)Nc3c(C)n(C)n(-c4ccccc4)c3=O)c2)c1 returned UCH37 inh -2.2, MLL AF4-AF9 inh inconclusive, FGF22 binding inactive, Ecoli growth 0.69 and HNF4A DNA FP 3.0.
For C[C@@H]1CC=C[C@H]2[C@H]1C(=O)N(Cc1ccccc1)[C@H]2c1ccc(-c2ccc(N(C)C)cc2)cc1F the results were UCH37 inh -23, RanGTP-Impb inh 7.9, MLL AF4-AF9 inh 6.1, FGF22 binding inactive and HNF4A DNA FP 3.8.
For CC(=O)Nc1ccc(C(=O)OCC(=O)NC(=O)NC2CCCCC2)cc1 the results were UCH37 inh -2.1, RanGTP-Impb inh 2.3, Ecoli growth 0.73, Vif A3G -3% and HNF4A DNA FP 5.2.
Cc1ccc(C(=O)COC(=O)c2ccco2)cc1C was read as UCH37 inh 3.2, RanGTP-Impb inh 0.3, MLL AF4-AF9 inh -2.0, FGF22 binding inactive, Ecoli growth 0.73 and HNF4A DNA FP -1.6.
For Nc1scc[n+]1Cc1cccc2cccnc12 the results were UCH37 inh 1.7, RanGTP-Impb inh -0.1, MLL AF4-AF9 inh -18, FGF22 binding inactive, Ecoli growth 0.71, Vif A3G 17% and HNF4A DNA FP -1.1.
